# Compound activity (PubChem BioAssay)
# LASV entry inh: Lassa virus entry inhibition; Lassa virus pseudotype entry inhibition, cell reporter; control for the full effect not named in the record; AID 540256; Potency, µM (titrated, usually from 37.9 µM), inactives show at the highest dose activity change, negative = inhibition, actives largely listed as inhibitors; 1.2% of 300,000 active; active means well fitted inhibition curve with a large enough effect; inconclusive means small, poorly fitted or top-dose-only effect, or effect the other way; inactive means flat fitted curve, though single readings scatter; tested in HEK293 cells; also: % is scaled to controls: 0 for no effect and ±100 for the full control effect; nearly all actives have a fitted effect of over 50% in size; luciferase read-out
# StopGo reporter: lowers the luciferase signal of an FMDV 2A StopGo reporter | 1.2% of 410,000 active | Potency, µM (highest dose often 57.9 µM), for the others: top-dose signal change, negative = less light | human cells with a luciferase reporter of 2A StopGo recoding; control for the full effect not named in the record; active = well fitted falling curve with a large enough effect; inconclusive = small, poorly fitted or top-dose-only effect; inactive = no such curve, though single readings can be large or run the other way; tested in HEK293T cells; also: % is scaled to controls: 0 for no effect and ±100 for the full control effect; nearly all actives have a fitted effect of over 45% in size; luciferase light after 4 h
# RE007 growth inh: less growth of the S. pombe RE007 Vpr strain; S. pombe RE007 Vpr strain, BacTiter-Glo ATP luminescence, 24 h; control for the full effect not named in the record; Potency, µM (doses to about 92.2 µM), inactives show top-dose activity change, negative = less growth; 0.21% of 360,000 active; active = well fitted falling curve with a large enough effect; inconclusive = small, poorly fitted or top-dose-only effect; inactive = no such curve, though single readings can be large or run the other way;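 also: % is scaled to controls: 0 for no effect and ±100 for the full control effect; nearly all actives have a fitted effect of over 50% in size; the assay follows cell death caused by Vpr and the record does not say whether a fall means rescue or toxicity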
#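 Fission yeast RE007 carrying one integrated HIV-1 vpr copy, seeded at OD 0.01 in PMG+AL medium with 23 nL pinned compound. Grown 24 h at 30 degrees; viability read by BacTiter-Glo luminescence after 5 min.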
# SARS PLP yeast: SARS-CoV PLP inhibition in yeast; Potency, µM (top dose mostly 32.9 µM), without a hit: top-dose activity, positive = growth rescue; S. cerevisiae expressing SARS-CoV PLpro, growth rescue; control for the full effect not named in the record; 0.19% of 330,000 active; AID 485353; also: 0% is about no effect; nearly all actives have a fitted effect of over 55% in size; growth read by luminescence after 48 h
# Cruzain inh Det: blocks cruzain activity in presence of Triton detergent. P25779. purified cruzain, Z-FR-AMC fluorescence, 0.01% Triton. Potency, µM, for the others: max response, negative = inhibition, actives largely listed as inhibitors. 0.43% of 200,000 active. AID 1478; active = well fitted curve in the direction sought with a large enough effect; inconclusive = small, poorly fitted or top-dose-only effect, or another doubt; inactive = no such curve, though single readings can be large; an effect the other way counts as inactive or inconclusive;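 also: plate controls were neutral wells for no effect and buffer without enzyme for full effect; nearly all actives have a fitted effect of over 40% in size; top concentration of the series not given in the record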
# Target sequence (P25779 123-467 limits assumed): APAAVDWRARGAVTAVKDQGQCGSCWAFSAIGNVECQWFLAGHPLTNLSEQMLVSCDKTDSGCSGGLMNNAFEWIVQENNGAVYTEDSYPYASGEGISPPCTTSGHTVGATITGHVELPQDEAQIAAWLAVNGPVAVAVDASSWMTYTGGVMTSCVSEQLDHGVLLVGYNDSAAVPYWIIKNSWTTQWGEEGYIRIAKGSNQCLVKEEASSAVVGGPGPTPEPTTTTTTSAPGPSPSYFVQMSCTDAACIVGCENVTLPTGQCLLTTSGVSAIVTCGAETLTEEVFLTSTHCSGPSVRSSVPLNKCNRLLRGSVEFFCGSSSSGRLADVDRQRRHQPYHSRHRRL
#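 Compounds were screened in titration against cruzain (1.5 nM) with 0.01% Triton X-100 to counter colloidal aggregation. Activity was the AMC fluorescence increase over 60 s after adding 2 uM Z-FR-AMC at pH 5.5.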
# NS1 inh: inhibitors of influenza NS1 protein function. S. cerevisiae slowed by influenza A NS1, growth recovery by OD600. Potency, µM (doses to about 46.1 µM), for the others: at the highest dose activity, positive = more growth. 0.4% of 270,000 active; also: actives are rising curves; nearly all actives have a fitted effect of over 50% in size
#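 In this qHTS, NS1 from influenza A is expressed in budding yeast, where it slows growth. Cells are switched from glucose to 2% galactose medium (pH 6.0, -URA), treated with compound, and growth recovery is read at OD600.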
# Cruzain noTriton: cruzain (T. cruzi) inhibition without detergent. P25779. purified cruzain, Z-FR-AMC fluorescence, no detergent. Potency, µM, inactives show max response, negative = inhibition, most hits filed as inhibitors. 2.3% of 200,000 active. AID 1476; active = well fitted curve in the direction sought with a large enough effect; inconclusive = small, poorly fitted or top-dose-only effect, or another doubt; inactive = no such curve, though single readings can be large; an effect the other way counts as inactive or inconclusive;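 also: plate controls were enzyme without inhibitor for no effect and buffer without enzyme for full effect; nearly all actives have a fitted effect of over 40% in size; top concentration of the series not given in the record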
#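 Purified cruzain at 1.5 nM, pre-incubated 15 min with compound at room temperature in 100 mM sodium acetate pH 5.5, 5 mM DTT, 0.00005% Triton X-100. Reaction started with 2 uM Z-FR-AMC; AMC fluorescence increase over 60 s gives rate.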
# Marburg entry inh: inhibitors of Marburg virus binding or cell entry; Marburg virus pseudotyped entry inhibition, cell reporter; control for the full effect not named in the record; about a third of the inactives were read at about 46 µM; Potency, µM (titrated, usually from 37.8 µM), inactives show top-dose activity change, negative = inhibition, actives largely listed as inhibitors; 1.8% of 300,000 active; AID 540276; active = well fitted inhibition curve with a large enough effect; inconclusive = small, poorly fitted or top-dose-only effect, or effect the other way; inactive = flat fitted curve, though single readings scatter; tested in HEK293 cells; about a fifth of its hits are not listed in these tables; also: % is scaled to controls: 0 for no effect and ±100 for the full control effect; luciferase read-out
# Starred values were filed as active, the others as inactive; ? = inconclusive; / = not tested or not shown; & = joins results of further samples; [ ] = dose if it differs, or a comment. Unless noted, calls follow the shape of the dose curve; as a rule, active means well fitted rising curve with a large enough effect; inconclusive means small, poorly fitted or top-dose-only effect; inactive means no such curve, though single readings can be large or run the other way. Potency is read from the fitted curve at half-maximal effect.
# Values in the order: NS1 inh | SARS PLP yeast | RE007 growth inh | Cruzain inh Det | Cruzain noTriton | Marburg entry inh | StopGo reporter | LASV entry inh
COc1ccccc1Nc1nc(-c2ccccc2O)nc2ccccc12
    5% | 3% | -14% | / | / | -9%[46.1 µM] | -9% | 8%[46.1 µM]
CCC(C)(C)NC(=O)C(c1cccs1)N(CC1CCCO1)C(=O)Cn1nnc2ccccc21 (stereo not drawn)
    5% | -2% | 5% | 0.8% | 1% | 0%&0% | -7% | 4%
CCOC(=O)C1CCCN(C(=O)c2ccccc2SCCOC)C1 (stereo not drawn)
    -3% | ? | -4% | 0.5% | -5% | 0% | / | -11%
CN1Cc2cc(C(=O)c3ccccc3O)cnc2NC1=O
    7% | 1% | -26% | -2.3% | -7% | -1% | 6% | 2%
CC(C)(Oc1ccc(Cl)cc1)C(=O)OCC(=O)N1CCN(c2ccccc2)CC1
    / | 3% | -9% | / | / | 2% | ? | -2%
CCCCn1nnnc1NCc1ccc(C)s1
    -3% | -1% | -9% | 0.4% | 2% | 2% | 12% | -8%
CC1=C(Nc2ccc(C(=O)O)cc2)C(=O)c2ccccc2C1=O
    -2% | -5% | -20% | / | / | / | 9% | /
O=C(/C=C/c1ccccc1)N/C(=C\c1ccco1)C(=O)O
    3% | 1% | 10% | / | / | 1% | -1% | -21%
CC(=O)c1cc(C(=O)Nc2ccc3ccccc3c2)c(C)o1
    -20% | -3% | 3% | / | / | 5%[46.1 µM] | 10% | 5%[46.1 µM]
CC(=O)C1C(c2ccc3ncccc3c2)NC(=O)NC1(O)C(F)(F)F (stereo not drawn)
    -1% | -6% | 5% | 4.1% | -17% | 1% | -16% | 1%
Cc1ccc(C(=O)N2CCN(C3c4cccc5cccc(c45)C3NS(=O)(=O)c3ccccc3)CC2)cc1 (stereo not drawn)
    11µM* | -1% | 32% | -3.9% | ? | 11µM* | -30% | 13µM*
C=CCNC(=O)c1ccc(-c2ccc([N+](=O)[O-])cc2)o1
    -24% | 8% | -3% | -5.7% | -2% | ? | 47%[activator] | ?
Cc1ccc(-c2csc(=Nc3ccccc3)n2Cc2ccc3c(c2)OCO3)cc1C
    / | / | / | -1.9% | 7% | ? | 8% | -1%[46.1 µM]
CCCc1cc(=O)oc2cc(OCc3nn[nH]n3)ccc12
    11% | 1% | 9% | -7.5% | -4% | -1% | -3% | ?
C#Cc1cccc(NC(=O)c2ccc3c(c2)C(=O)N(Cc2cccnc2)C3=O)c1
    13% | 5% | -10% | / | / | ? | ? | -3%
CC1(C)CN=c2s/c(=C\c3ccc(Cl)cc3)c(=O)n2C1
    / | -1% | -30% | / | / | ? | 19% | -23%
O=C1C=C(c2ccccc2)OC2(CCCC2)O1
    33% | -7% | -10%[3.69 µM] | -3.9% | 1% | -10% | 13% | 9%
Cc1cc(/C=C2\SC(=S)NC2=O)c(C)n1-c1ccc(O)cc1
    ? | -5% | 0% | / | / | / | -2% | /
CCOc1ccc(NC(=O)CC2C(=O)N(c3ccccc3)C(=O)N2C2CCCCC2)cc1 (stereo not drawn)
    / | / | / | -2.1% | -3% | -6%[46.1 µM] | -15% | ?
O=C(CN1C(=O)NC2(CCCCCC2)C1=O)Nc1ccccc1[N+](=O)[O-]
    / | -1% | 4% | / | / | ? | -12% | ?
Cc1cc(C)cc(NC(=S)NC(=O)Cc2ccccc2)c1
    / | / | -16% | / | / | ? | 31%[activator] | -41%[46.1 µM]
COC(=O)c1ccccc1NC(=O)Cn1c(=O)cc(-c2ccccc2)c2c(C)nn(C)c21
    / | / | / | -0.4% | -18% | / | 2% | 1%[46.1 µM]
Cc1cc(C)c2c(C)nn(-c3ccccc3)c2n1
    -4% | 7% | -18% | -2.3% | 10% | 10%[46.1 µM] | 0% | -25%
CCOC(=O)c1c(N=CN(C)C)c2cc([N+](=O)[O-])cnc2n1C
    0% | 0% | -14% | / | / | 9%[46.1 µM] | -22% | 16%
Cc1cc(NC(=O)CSc2nc3c([nH]c4ccccc43)c(=O)n2-c2ccc(Cl)cc2)no1
    / | / | / | 0.0% | 1% | / | 0% | ?
COC(=O)CCC(=O)NC(=S)Nc1sc(C)c(C)c1C(N)=O
    10% | 3% | 1% | -0.8% | ? | -24% | 14% | ?
COc1ccc(OC)c(NC(=O)CCCc2ccccc2)c1
    -11% | -5% | -12% | / | / | / | 4% | /
CCCOC(=O)c1ccc(NC(=O)/C=C/c2cccs2)cc1
    -46% | -81% | -16% | -13% | 9% | -27% | ? | ?
COc1cc(OC)c(NC(=O)CC(=O)Nc2cc(Cl)c(OC)cc2OC)cc1Cl
    24% | 5% | 3% | / | / | / | 13% | /
COc1ccccc1N(CC1CO1)S(=O)(=O)c1ccccc1 (stereo not drawn)
    -36% | 1% | 14% | / | / | 9%[46.1 µM] | -5% | -17%
CSc1ncc2c(n1)-c1ccccc1N(Cc1ccc(F)cc1)S2(=O)=O
    / | / | / | -2.3% | 7% | / | -18% | -3%[46.1 µM]
Cc1ccc(-c2cc(C(=O)N/N=C/C=C/c3ccccc3)n[nH]2)s1
    9% | 3% | 6% | -6.1% | ? | -23% | -14% | ?
CC1CC(=O)N(CC(=O)Nc2ccc3c(c2)OCCO3)c2ccccc2S1 (stereo not drawn)
    -52% | 3% | -13% | 0.4% | 12% | 15% | -19% | -21%
CCN1CCN(C(=S)NC(=O)c2cc(OC)c(OC)c(OC)c2)CC1
    / | -3% | 0% | / | / | 14% | -4% | ?
CCC(C)(NC(=O)Cc1c[nH]c2ccccc12)C(=O)NC1CCCCC1 (stereo not drawn)
    -1% | 6% | 0% | 1.2% | 15% | 0% | -1% | ?
Cc1cc([N+](=O)[O-])nn1CC(=O)NCc1cccs1
    2% | 1% | 1% | 4.1% | -7% | 5% | -27% | 2%
CCOC(=O)C1=C(C)NC2(O)c3ccccc3C(=O)C12O (stereo not drawn)
    16% | 10% | 9% | 4.9% | 10% | -6%[46.1 µM] | -5% | -3%
COc1cc(C(=O)NCCSc2ccc(F)cc2)cc(OC)c1OC
    -3% | -1% | -2% | / | / | / | -27% | /
CC(c1nnnn1C1CCCCC1)N(Cc1ccccc1)Cc1cccnc1 (stereo not drawn)
    -44% | -19% | -1% | -1.4% | 6% | 0% | -24% | -7%
CN(C(=S)Nc1ccc(Oc2ccccc2)cc1)c1ccc(O)cc1
    19% | -21% | 4% | -14% | 4% | ? | ? | 6%

# Some of the entries so far, as tab-separated lines:
molecule	NS1 inh	SARS PLP yeast	RE007 growth inh	Cruzain inh Det	Cruzain noTriton	Marburg entry inh	StopGo reporter	LASV entry inh
C=CCNC(=O)c1ccc(-c2ccc([N+](=O)[O-])cc2)o1	-24%	8%	-3%	-5.7%	-2%	?	47%[activator]	?
CC(=O)c1cc(C(=O)Nc2ccc3ccccc3c2)c(C)o1	-20%	-3%	3%	/	/	5%[46.1 µM]	10%	5%[46.1 µM]
CCOC(=O)C1CCCN(C(=O)c2ccccc2SCCOC)C1 (stereo not drawn)	-3%	?	-4%	0.5%	-5%	0%	/	-11%

# Later entries:
# Values in the order: NS1 inh | SARS PLP yeast | RE007 growth inh | Cruzain inh Det | Cruzain noTriton | Marburg entry inh | StopGo reporter | LASV entry inh
CCOC(=O)C1(Cc2ccccc2C(F)(F)F)CCN(C2CCN(C(C)C)CC2)CC1
    1% | -1% | -4% | / | / | 7.3µM* | -9% | ?
COc1ccccc1C(=O)C1Nc2ccccc2-c2nnc(SC)nc2O1 (stereo not drawn)
    8% | 17% | -10% | -6.7% | -14% | 2% | 16% | -20%
Cc1ccccc1NC(=S)N(CCN(C)C)C(C)c1cccnc1 (stereo not drawn)
    / | 1% | 5% | / | / | ? | -5% | 20%
N/C(=N\N=C\c1cccc([N+](=O)[O-])c1)c1nonc1N
    0% | 1% | -1% | / | / | / | 68%[activator] | /
O=C(NC(=S)Nc1cnc2ccccc2c1)c1ccccc1
    -5% | -3% | -11% | / | / | / | 71%[activator] | /
O=C(NCc1ccccc1Br)c1ccco1
    -13% | 0% | 4% | -2.2% | -22% | 19% | -3% | -1%
O=C(NCCCN1CCOCC1)C1CCC(=O)N1CCc1ccccc1 (stereo not drawn)
    -1% | -1% | -7% | 1.4% | 4% | / | -18% | /
NC(=O)c1cccc2cc3ccccc3cc12
    8% | -1% | -9% | / | / | -13%[46.1 µM] | 14% | /
CCOCCOC(=O)c1[nH]c2c(c1C)C(=O)CC(c1cccs1)C2 (stereo not drawn)
    / | -5% | 4% | / | / | ? | -25% | ?
O=C(O)c1ccc(S(=O)(=O)NC2CC2)cc1
    -2% | -3% | -7% | / | / | / | -6% | /
O=C(CN1C(=O)CCn2nc(-c3ccccc3)cc21)NCc1ccc(F)cc1
    / | / | / | -3.2% | 4% | / | -7% | 13%[46.1 µM]
COc1ccc(C(=O)N2CCN(CCc3ccccn3)CC2)cc1
    4% | 5% | -12% | 2.2% | -3% | -19%[46.1 µM] | -15%&-7% | 5%[46.1 µM]
COc1ccc(S(=O)(=O)N2CCN(C3CCCCCCC3)CC2)cc1
    3%&-5% | -2%&1% | 11%&1% | 5.8% | -5% | ? | ? | -8%&9%
CN1CCN(CC#CC2(O)CCCCC2)CC1
    9% | 1% | 14% | 5.7% | 0% | 18% | / | 2%
COC(=O)c1cc(C(O)(C(=O)OC)C(F)(F)F)c(/N=C/N(C)C)s1 (stereo not drawn)
    -1% | 2% | -19% | -7.2% | 3% | 6% | / | 6%
Cc1cc(=O)oc2cc(OC(C)C(=O)NC3CCCC3)ccc12 (stereo not drawn)
    -43% | 0% | -1% | / | / | 2%[46.1 µM] | -2% | 10%
CCC(=O)Nc1nonc1-c1nc2ccccc2n1Cc1ccc(Cl)c(Cl)c1
    23% | / | 15% | / | / | -8%[46.1 µM] | ? | -22%[46.1 µM]
CCCCCn1c(=O)[nH]c2cc(C(=O)NCCCN3CCC(C)CC3)ccc2c1=O
    6% | -1% | 1% | 1.2% | -6% | ? | -14% | -20%
O=C(Nc1ccc(CN2CCOCC2)cc1)c1cccs1
    -2% | -3% | 7% | 0.8% | -10% | ? | 43%[activator] | 3%
